# Hsc70 ATP site = small molecules displacing fluorescent ligand from Hsc70 – biochemical, fluorescence polarization, primary screen (AID 568); Hsc70 fluorescence polarization, probe displacement; higher % means a stronger effect; strong numbers were not always called active; displacement, % at 20 µM, or IC50 in µM where a hit was titrated; 83,000 tested, under 10 active;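 active = displacement above 50% without optical interference and an IC50 on retest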;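 note: ATPase domain with a fluorescein-tagged ATP probe; 0% = vehicle and 100% = excess ADP; read after one hour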
# WNV NS2B-NS3 inh = WNV NS2B-NS3 proteinase inhibition | WNV NS2B-NS3 protease, fluorogenic substrate Ex360/Em465; active compounds read low | 0.18% of 65,000 active | z-score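 (tested at a level between 10 and 100 µM)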 | P06935;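 active = z-score at -3 or under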;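 note: score is relative to mean and spread of the compound wells of a plate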
# Target sequence (P06935 1371-1501 limits assumed): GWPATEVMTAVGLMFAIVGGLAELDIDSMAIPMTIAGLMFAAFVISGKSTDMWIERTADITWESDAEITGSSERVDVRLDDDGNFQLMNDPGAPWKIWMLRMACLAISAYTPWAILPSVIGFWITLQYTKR
# Target sequence (P06935 1502-1679 limits assumed): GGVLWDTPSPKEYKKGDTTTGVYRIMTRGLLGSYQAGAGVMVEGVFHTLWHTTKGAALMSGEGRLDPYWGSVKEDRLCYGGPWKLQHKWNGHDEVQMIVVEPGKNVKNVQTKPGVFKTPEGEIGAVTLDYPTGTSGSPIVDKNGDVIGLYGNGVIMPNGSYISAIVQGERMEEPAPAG
# MT1-MMP promoter = inhibitors of MT1-MMP promoter transcription, cell-based, luciferase reporter, luminescence (AID 618). calls from a first round at 10 µM; hits with a dose series show EC50 in µM. MT1-MMP promoter luciferase reporter cells, luminescence. 0.62% of 87,000 active;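 active = over half of the reporter light lost at 10 µM or EC50 under 50 µM; inactive = the rest and hits that failed the dose series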;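 note: actives suppress MT1-MMP promoter-driven transcription so potencies describe inhibitors; HT1080 fibrosarcoma cells; overnight exposure; toxic or luciferase-blocking compounds were not removed from the actives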
# The depositor's hits bear a star; i = inactive; x = not tested or not shown; + = active, no number.
# Values run as follows: WNV NS2B-NS3 inh	MT1-MMP promoter	Hsc70 ATP site
> CCOC(=O)C1CCN(c2ncnc3c2[nH]c2cccc(OC)c23)CC1
 : 0.16	i	3.4%
> CCOC(=O)CCc1c(C)c2ccc(OCC(=O)OC(C)C)cc2oc1=O
 : 1.5	i	-5.2%
> Cc1cc([N+](=O)[O-])ccc1NC(=S)NC(=O)Cc1ccccc1
 : x	i	0.7%
> Cn1c(=O)c2c3c(sc2n2cnnc12)CCC3
 : x	i	6.4%
> CC(=O)c1ccc(Oc2cc(C)nc(-n3nc(C)cc3C)n2)cc1
 : 0.65	+	-1.6%
> O=C1C(N2CCOCC2)=C(n2nnc3ccccc32)C(=O)c2ccccc21
 : x	10µM*	7.4%
> Cn1c(SCC(=O)Nc2sccc2C#N)nnc1-c1ccccc1
 : x	i	-2.3%
> O=C(CSc1nnc(-c2ccccc2)c(-c2ccccc2)n1)N1CCOCC1
 : -0.41	i	-0.1%
> CCCOC(=O)c1ccc(NC(=O)c2cn(CC)c3nc(C)ccc3c2=O)cc1
 : x	i	-23%
> CCOc1ccc(N(CC(=O)NCCSc2ccccn2)S(C)(=O)=O)cc1
 : 0.22	i	5.5%
> COc1cccc(-n2c(SCC(=O)NC3CCCCC3)nc3n[nH]c(C)c3c2=N)c1
 : -0.8	i	6.4%
> Cc1cc(C)c2c(N)c(C(=O)NC3CC3)sc2n1
 : x	i	0.8%
> COc1cc(C(=O)NC2=NCCS2)ccc1OCc1c(C)noc1C
 : -0.16	i	-4.6%
> CCOc1ccc(N(CC(=O)N2CCN(c3ccccc3)CC2)S(=O)(=O)c2c(C)noc2C)cc1
 : -0.42	i	3.5%
> CCOC(=O)c1ccc(NC(=O)CNS(=O)(=O)c2ccccc2)cc1
 : x	i	-0.8%
> CCOC(=O)Cn1cc(-c2ccccc2)nn1
 : -0.99	i	3.8%
> Cc1ccc(-c2nnc(SCC(=O)O)n2N)cc1
 : -1.7	i	-5.9%
> COCCn1c(COc2ccc(C)cc2)nc2ccccc21
 : 0.43	i	0.1%
> Cc1cc2n(c(=O)c1C#N)CCCN2c1ccccc1
 : x	i	-1.6%
> CCOC(=O)/C(C#N)=C1/SC(CC)C(=O)N1c1ccc(Br)cc1 (stereo unspecified)
 : x	i	-6.3%
> O=C1C(Cl)=C(N2CCOCC2)C(=O)N1c1ccccc1Cl
 : 0.07	i	-1.1%
> O=C(Cn1nnc(-c2ccncc2)n1)N(C1CCCCC1)C1CCCCC1
 : 1.7	i	-2.9%
> CC(C)C1Cc2c(C#N)c(N)n(C)c(=S)c2CO1 (stereo unspecified)
 : -0.29	i	0.3%
> O=C(CNC(=O)c1ccccc1)NC1(C(=O)NC2CCCC2)CCCCC1
 : 0.34	i	-1.2%
> Cc1onc(-c2ccccc2)c1C(=O)Nc1cc(C(F)(F)F)ccc1N1CCOCC1
 : -0.42	+	-5.4%
> CC1=C(C(N)=O)C(c2ccccc2)n2nc(-c3ccncc3)nc2N1 (stereo unspecified)
 : -1.2	i	1.1%
> COc1ccc(N2CCN(C(CNC(=O)C3CCCCC3)c3cccnc3)CC2)cc1 (stereo unspecified)
 : 0.76	i	-1.0%
> O=C(Nc1nc(-c2ccc3c(c2)OCO3)cs1)c1ccncc1
 : -2.1	i	0.0%
> Cc1ccc(C)n1-n1c(C)nc2sc3c(c2c1=O)CCCCC3
 : 0.09	i	2.5%
> COc1cccc(NC(=O)Nc2cccs2)c1
 : 0.21	i	-4.8%
> CCCc1nnc(NC(=O)CCC(=O)N2CCCCC2CC)s1 (stereo unspecified)
 : 0.87	i	0.1%
> COc1ccc(S(=O)(=O)N2CCc3ccccc32)cc1C(=O)OCc1nnc(-c2ccccc2)o1
 : -0.81	i	-2.4%
> COCCn1c(CN2CC(C)CC(C)C2)nc2c1c(=O)n(C)c(=O)n2C (stereo unspecified)
 : 1.9	i	-3.2%
> COc1ccc(CNc2ccc(-c3ccc(OC)cc3)nn2)cc1
 : 1.3	i	0.6%
> COc1cccc(CNC(=O)CCNS(=O)(=O)c2cccs2)c1
 : -0.18	i	0.1%
> CCOC(=O)C1=C(C)N=C2SC(C)C(=O)N2C1c1ccc(OC(C)=O)c(OC)c1 (stereo unspecified)
 : 0.44	i	1.8%
> O=c1/c(=C/c2cccc3ccccc23)sc2ncnn12
 : -0.4	i	-5.4%
> CCC(CC)c1nnc(NC(=O)c2cccc(S(=O)(=O)N3CCc4ccccc43)c2)s1
 : x	i	2.4%
> CC(NC(=O)Cn1ccsc1=N)C12CC3CC(CC(C3)C1)C2 (stereo unspecified)
 : -0.51	i	-1.4%
> O=C(c1cccs1)N(Cc1nc2sc3c(c2c(=O)[nH]1)CCCC3)C1CCCC1
 : 0.54	i	-4.2%
> CN(C(=O)C(Cl)Cl)c1ccc(OC(=O)c2ccco2)cc1
 : 0.06	i	-5.7%
> COCCN1Cc2cccc(C(=O)Nc3c(C)cc(C)cc3C)c2C1=O
 : 1.1	i	1.5%
> CC(=O)/C(C[N+]1(C)CCCCC1)=N\O
 : 0.58	i	-0.9%
> O=C(Nc1ccccc1)N(C1=NCCCCS1)c1ccccc1
 : 1	i	-1.8%
> COc1ccc2sc(C)nc2c1NC(C)=O
 : 1.2	i	-12%
> O=C(c1cn(-c2ccccc2)nc1-c1ccccc1)N1CCOCC1
 : 0.7	i	-6.8%
> Cc1noc(C)c1S(=O)(=O)N1CCCC(C(=O)NCCC2=CCCCC2)C1 (stereo unspecified)
 : -1.1	i	5.0%
> CN(C)S(=O)(=O)c1ccc2c(c1)C(CC(=O)O)NC2=O (stereo unspecified)
 : 0.44	i	-8.3%
> Cc1cc(C)cc(-n2c(SCC(=O)NCc3ccco3)nc3ccccc3c2=O)c1
 : x	i	-0.4%
> COc1cccc(NC(=O)CSc2nc3n[nH]c(C)c3c(=N)n2-c2cccc(OC)c2)c1
 : -3.1*	i	4.0%
> CCn1c(SCC(=O)Nc2cc(F)ccc2C)nnc1-c1ccccc1O
 : 1.6	i	9.3%
> COc1ccc(N2CSC3=C(C#N)C(c4ccc(OC)c(OC)c4)CC(=O)N3C2)c(OC)c1 (stereo unspecified)
 : 0.62	i	2.9%
> C=CCNC(=O)C1CC(c2cccc(OC)c2)=NO1 (stereo unspecified)
 : -0.26	i	1.9%
> O=C(c1cccnc1)N1CCC(c2nc3ccccc3[nH]2)CC1
 : 1.4	i	0.2%
> Cn1c(=O)n(C)c2cc(S(=O)(=O)Nc3ccccc3O)ccc21
 : x	i	-1.5%
> COc1ccccc1NC(=O)C(C)NS(=O)(=O)c1ccccc1 (stereo unspecified)
 : 0.75	i	-3.8%
> CCc1cccc(NC(=O)Nc2cccs2)c1
 : 0.55	i	-0.3%
> Cc1ccc(-c2n[nH]c(=O)c3ccccc23)cc1S(=O)(=O)N(C)CCO
 : x	i	1.2%
> CCOc1cc(/C=N/NC(=O)Cn2nc([N+](=O)[O-])cc2C)ccc1OCc1ccc(F)cc1
 : x	i	-4.2%
> COc1ccc2c(c1)N(C(=O)CSc1n[nH]c(C)n1)C(C)(C)C=C2C
 : 0.48	i	-3.6%

# Reformatted: entries from further up
Compound: CCc1cccc(NC(=O)Nc2cccs2)c1
- WNV NS2B-NS3 inh = 0.55
- MT1-MMP promoter = i
- Hsc70 ATP site = -0.3%

Compound: CN(C)S(=O)(=O)c1ccc2c(c1)C(CC(=O)O)NC2=O (stereo unspecified)
- WNV NS2B-NS3 inh = 0.44
- MT1-MMP promoter = i
- Hsc70 ATP site = -8.3%

Compound: Cc1ccc(-c2n[nH]c(=O)c3ccccc23)cc1S(=O)(=O)N(C)CCO
- WNV NS2B-NS3 inh = x
- MT1-MMP promoter = i
- Hsc70 ATP site = 1.2%

# (further entries)
# Values run as follows: WNV NS2B-NS3 inh	MT1-MMP promoter	Hsc70 ATP site
> CC(C)(C)Oc1ncc(Br)c(OC(C)(C)C)n1
 : -0.8	i	2.9%
> O=S(=O)(Nc1ccncc1Cl)c1ccccc1
 : x	i	-3.1%
> COc1ccc(-c2cc(C(F)(F)F)nc(N3CCOCC3)n2)cc1
 : x	i	-2.2%
> CCOc1ccc2nc(SCC(=O)N(C)C)[nH]c2c1
 : x	i	0.2%
> Cc1csc2nnc(N)n12
 : -0.52	i	-1.7%
> Cc1cccc(NC(=O)COc2ccccc2)c1
 : 0.01	i	2.9%
> CC(=O)NCCn1c(SCC(=O)OCc2ccccc2)nc2ccccc2c1=O
 : -0.28	i	-3.3%
> COc1ccc(-c2cc(NCc3ccccn3)n3ncnc3n2)cc1
 : 1.5	i	2.0%
> CC(C)Cc1nc2oc3c(N4CCN(C)CC4)ncnc3c2c2c1CCCC2
 : -0.88	i	2.3%
> COCC(=O)Nc1nc(-c2ccc(C)cc2)c(C)s1
 : x	i	-4.4%
> CN(c1ccc(C(=O)N2CCc3ccccc3C2)cc1)S(C)(=O)=O
 : 0.59	i	-1.8%
> Cn1nnc(NC(=O)c2cccc(F)c2)n1
 : -1	i	-6.5%
> COc1ccc(OC)c(-n2c(-c3cccc(O)c3)n[nH]c2=S)c1
 : -1.1	i	3.7%
> O=C(c1ccc2c3c(cccc13)C(=O)N(O)C2=O)N1CCCCC1
 : -1.1	i	-3.5%
> O=C(c1ccco1)N1CCN(C(c2ccccc2F)c2nnnn2Cc2cccs2)CC1 (stereo unspecified)
 : -1.1	i	-1.7%
> Cc1cc(C(=O)CSc2nc3ccccc3c(=O)[nH]2)c(C)n1C
 : 0.28	i	2.6%
> CCNC(=O)CCCOc1ccc(Cl)cc1Cl
 : -0.79	i	1.9%
> COc1cc(C(=O)NCc2ccc(C)cc2)ccc1OCc1c(C)noc1C
 : x	i	-3.1%
> CCC(C)(C(=O)NC1CCCC1)N(C(=O)c1cnccn1)c1c(C)n(C)n(-c2ccccc2)c1=O (stereo unspecified)
 : 0.89	i	7.6%
> CCn1c(SCC(=O)Nc2cccc(NC(C)=O)c2)nnc1C(C)C
 : 0.11	i	-1.8%
> COC(=O)c1c(C)oc(C)c(C(=O)OC)c1=O
 : 2.2	i	-8.9%
> Cc1cc2oc(=O)c3c(c2cc1OC(=O)c1ccco1)CCCC3
 : 1.3	i	-5.6%
> CC1CC(N(C(=O)C2CC2)c2ccccc2)c2ccccc2N1C(=O)C1CC1 (stereo unspecified)
 : 0.48	i	-5.2%
> CCCc1nnc(NC(=O)CC(=O)OCC)s1
 : 0.75	i	-5.3%
> Cc1ccc(S(=O)(=O)NCCc2ccccc2)cc1
 : x	i	2.4%
> CC(=O)Nc1nonc1NC(=O)CSc1ccccn1
 : -1.6	i	-6.0%
> CCN(CC)C(=O)CSc1nnc(-c2cccc(OC)c2)o1
 : 0.67	i	1.0%
> COC(=O)C1=NN(N=O)C2(CC(=O)N(c3cc(C)cc(C)c3)C2=O)C1 (stereo unspecified)
 : x	i	1.6%
> CC(c1ccccc1)n1cc(C(=O)NCc2cccnc2)nn1 (stereo unspecified)
 : 1.3	i	-1.7%
> O=C(c1cc2nc(-c3ccco3)cc(C(F)(F)F)n2n1)N1CCN(c2ccccc2)CC1
 : 1.4	i	-1.1%
> Cc1cc(C)cc(N2C(=O)C3C4C=CC(C4)C3C2=O)c1 (stereo unspecified)
 : -0.27	i	-3.1%
> Cc1ccc(S(=O)(=O)N2CCC(C(=O)Nc3nnc(-c4ccco4)s3)CC2)cc1
 : -1.2	i	3.1%
> Cc1c(OCc2nn[nH]n2)ccc2c3c(c(=O)oc12)CCCC3
 : 0.5	i	-2.0%
> O=C(c1ccc(Cl)c(S(=O)(=O)NCc2ccco2)c1)N1CCN(c2ccccc2F)CC1
 : x	i	2.5%
> O=C(COC(=O)CCc1c[nH]c(=O)[nH]1)Nc1cccc(Cl)c1
 : 1.1	i	7.0%
> CCc1nc(N2CCN(S(=O)(=O)c3ccc(Br)cc3)CC2)c2c(C)c(C)sc2n1
 : x	i	4.1%
> CCC(C)(C(=O)NC1CCCC1)N(Cc1ccco1)C(=O)c1ccccn1 (stereo unspecified)
 : 0.2	i	6.3%
> Cc1onc(-c2ccccc2Cl)c1C(=O)Nc1cccc2cccnc12
 : -0.53	i	-2.7%
> COc1ccc(CN2CCOCC2)cc1
 : x	i	-1.1%
> CC(=O)Nc1nc(-c2ccccc2)ns1
 : x	i	0.6%
> CC1Cc2nc(SCC(=O)Nc3ccc4c(c3)OCO4)n(CCc3ccccc3)c(=O)c2S1 (stereo unspecified)
 : -0.74	i	-0.3%
> O=C(c1ccccc1Oc1nnnn1-c1ccccc1)N1CCOCC1
 : -1.2	i	5.9%
> O=C(COC(=O)C1CCN(S(=O)(=O)c2cccs2)CC1)c1cc2ccccc2o1
 : -1.4	i	-28%
> COc1ccccc1NC(=O)CN(C)S(=O)(=O)c1ccc(F)cc1
 : -0.75	i	1.8%
> CCc1nc2ccccc2c(C(=O)OCCN2C(=O)c3ccccc3C2=O)c1C
 : x	i	-1.2%
> O=C(CSc1nc2ccccc2s1)N1CCCCC1
 : x	i	0.4%
> COc1cc(C)c(Cl)cc1S(=O)(=O)n1cnc2ccccc21
 : x	i	-1.1%
> COc1ccc(C2CC(c3ccc(OC)cc3)n3nc(NC(=O)c4cccs4)nc3N2)cc1 (stereo unspecified)
 : x	i	4.6%
> Cc1cccn2c(=O)c3cc(C(=O)NCCCN4CCOCC4)n(C)c3nc12
 : 0.36	i	3.2%
> CCn1cc(C(=O)NCC2CCCO2)c(=O)c2cc(S(=O)(=O)N(C)C)ccc21 (stereo unspecified)
 : 0.41	i	3.0%
> C=CCNc1nc(-c2ccc(O)c(C(N)=O)c2)cs1
 : -0.55	i	-0.1%

# The list is partial (hit frequency here may not be typical).
